RecA splice inh: inhibitors of M. tuberculosis RecA intein splicing | P9WHJ3 | cell-free RecA intein splicing, fluorescence | inhibition, %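 (about 9 µM by stock and volumes)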 | 290,000 tested, 0.75% active; in the data active means inhibition above about 30%; inconclusive means no clear call, values can overlap the other calls;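 further: 0% = vehicle wells and 100% = reference inhibitor control wells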
Target sequence (P9WHJ3 whole entry, looked up, canonical isoform): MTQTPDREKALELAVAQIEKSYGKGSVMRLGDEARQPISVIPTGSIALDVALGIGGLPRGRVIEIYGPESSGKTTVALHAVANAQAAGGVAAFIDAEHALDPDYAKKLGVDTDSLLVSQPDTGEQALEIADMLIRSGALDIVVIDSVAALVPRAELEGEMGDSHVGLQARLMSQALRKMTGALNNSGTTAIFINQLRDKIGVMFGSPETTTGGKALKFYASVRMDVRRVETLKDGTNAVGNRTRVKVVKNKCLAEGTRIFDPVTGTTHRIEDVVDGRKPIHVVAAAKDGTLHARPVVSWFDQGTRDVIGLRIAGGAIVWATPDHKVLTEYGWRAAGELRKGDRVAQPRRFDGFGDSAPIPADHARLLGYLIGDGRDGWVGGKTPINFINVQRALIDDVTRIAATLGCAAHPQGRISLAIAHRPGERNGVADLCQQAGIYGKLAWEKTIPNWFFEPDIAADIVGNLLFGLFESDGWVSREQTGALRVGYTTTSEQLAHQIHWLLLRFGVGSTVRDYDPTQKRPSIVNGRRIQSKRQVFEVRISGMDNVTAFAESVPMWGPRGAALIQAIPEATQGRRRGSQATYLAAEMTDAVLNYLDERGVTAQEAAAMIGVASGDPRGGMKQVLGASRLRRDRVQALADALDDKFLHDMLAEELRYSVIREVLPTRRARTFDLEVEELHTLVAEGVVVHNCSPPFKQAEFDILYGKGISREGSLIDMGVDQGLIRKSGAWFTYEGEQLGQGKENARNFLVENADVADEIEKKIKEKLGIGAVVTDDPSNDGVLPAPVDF
Mtb H37Rv: M. tuberculosis H37Rv growth inhibitors, H37Rv strain (AID 1626) | 220,000 tested, 0.95% active | M. tuberculosis H37Rv growth inhibition; higher % means a stronger effect | one-dose inhibition, % at 10 µM; IC50 in µM for titrated hits;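 active means confirmed in a dose series; inconclusive means inhibition above 80% but not taken into the dose series; inactive means below 80% or under 30% at every dose of the series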;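 further: bacteria incubated seven days before Alamar blue readout; 0% = bacteria only wells and 100% = bacteria with antibiotic wells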
Arbovirus anti: arbovirus infection inhibition. arbovirus infection cell-based antiviral screen. inhibition, % at 10 µM. AID 1251. 200,000 tested, 0.37% active;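 active means inhibition from about 30%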;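 further: bluetongue infection of BSR cells; cell survival read as ATP light after 72 h; 0% = infected wells without compound and 100% = uninfected wells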
YopH PTP inh: inhibitors of Yersinia enterocolitica YopH tyrosine phosphatase | 140,000 tested, 0.16% active | AID 898 | inhibition, %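 (about 10 µM by stock and volumes)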 | fluorescence Ex485/Em525;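 active means inhibition of 50% or more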;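 further: controls were vehicle for no effect and minimum signal wells for full effect; inactives centre near -20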
Mtb betalactam: beta-lactam sensitization of Mtb H37Rv; M. tuberculosis H37Rv growth with meropenem, percent inhibition; hits of this screen are not shown here; inhibition, % at 25 µM; 330,000 tested, 0.27% active; AID 434955;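 active means about 74% or more and at least 40 points above the plate without the antibiotic, then above 30% in a dose series; inconclusive means first-round hits that could not be retested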;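 further: growth measured after seven days incubation then overnight dye step; 0% = bacteria only wells and 100% = bacteria with antibiotic; twin plates without the antibiotic show which effects depend on it; some results filed as inactive read as strong as hits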
Arbovirus anti repeat: second read-out of Arbovirus anti, no call of its own (marks repeat the call); inhibition, %; measured here: 10K subset replicate screen; many hits read low in the repeat;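 first of two repeat runs on a subset; 0% = infected and 100% = uninfected wells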
* = called active by the depositor; ? = inconclusive; . = not tested or not shown. This is a subset; count on the stated rates, not on these rows.

SMILES	RecA splice inh	Mtb H37Rv	Arbovirus anti	YopH PTP inh	Mtb betalactam	others
CC1=C(C#N)C(Nc2ccc(C)cn2)(C(F)(F)F)C(=O)N1 (stereo not given)	1.9	-3%	4	0	-10
Cc1nc2sccn2c(=O)c1S(=O)(=O)Nc1ccc(N2CCN(C(=O)C(C)C)CC2)cc1	-0.9	.	.	.	-11
C/C(CC1CC(COCC(C)C)OC1=O)=N\Nc1nc(-c2ccccc2)cs1 (stereo not given)	2.2	-5%	-2	-4	-1
CCN(CC)S(=O)(=O)c1ccc(Cl)c(NC(=O)COC(=O)/C=C/c2ccc(O)c(OC)c2)c1	-0.4	6%	5	-27	-6
O=C(Nc1ccc(Oc2ccc(NC(=O)Nc3ccccc3Cl)cc2)cc1)Nc1ccccc1Cl	-0.3	8%	.	.	-5
CC(C)CCC(C)NC(=O)CN1C(=O)NC(C)(c2ccc3ccccc3c2)C1=O (stereo not given)	0.2	.	.	.	2
COc1ccc(CCNC(=O)C2CCC(CNc3c(N4CCCC4)c(=O)c3=O)CC2)cc1OC (stereo not given)	1.6	-3%	2	-34	-2
COc1ccc(C(NC(=O)/C=C/c2ccco2)c2ccc(OC)c(OC)c2)cc1OC	5.3	4%	7	-6	-2
CCOC(=O)c1cn2nc(OP(=S)(OCC)OCC)cc2nc1C	5.4	19%	4	-27	-2
COc1ccc(NC(=O)c2cc(F)c(F)cc2Cl)cc1Cl	-0.5	-6%	.	.	1
COc1ccc(N(C(=O)CNC(=O)c2cccs2)C(C(=O)NCC2CCCO2)c2ccc(OC)c(OC)c2)cc1 (stereo not given)	-2.0	-6%	1	.	1
Cc1ccc(CNC(=O)CC2Nc3c4ccccc4nc(=S)n3C2=O)cc1 (stereo not given)	-1.8	-4%	0	.	-7
COc1ccccc1CNC(=O)C(NC(=O)Nc1ccccc1)C(C)C (stereo not given)	-2.5	.	.	.	-6
CCOc1cccc2sc(N(CCCN(C)C)C(=O)c3ccc(S(=O)(=O)N(C)CC4CCCO4)cc3)nc12 (stereo not given)	-1.9	.	.	.	-2
O=C(CN1CCOCC1)NCCNS(=O)(=O)c1ccccc1	1.6	.	.	.	?
N#CC1=C2SC=C(c3ccc(Br)cc3)N2CCCC1=O	1.6	2%	3	.	-2
COC(=O)C1C(C(=O)OC)C1(c1ccccc1)c1ccccc1 (stereo not given)	-0.7	1%	.	.	-6
O=S(=O)(c1ccccc1)N1CCN=C1SCc1ccc(Cl)c(Cl)c1	5.0	8%	19	-25	1
CC(=O)c1cccc(NC2=NCC(C)S2)c1 (stereo not given)	0.8	3%	1	-21	0	Arbovirus anti repeat=3
CCOC(=O)N1CCN(C(=O)C2CCN(C(=O)c3ccc(C(C)(C)C)cc3)CC2)CC1	-7.2	.	.	.	-2
CCOc1cccc(OCCCCn2ccnc2)c1	-0.6	-2%	-5	5	-2	Arbovirus anti repeat=-6
CCOC(=O)c1c(C)[nH]c(C(=O)OCC(=O)N(C)C2CCS(=O)(=O)C2)c1C (stereo not given)	0.7	-2%	2	-28	3
C=C(C)COc1ccc(-c2ncncc2-c2ccc(OC)cc2)c(O)c1	18	.	.	.	3
OC(c1ccccc1)c1nc2ccccc2s1 (stereo not given)	0.9	-2%	14	-56	5
COc1ccc(S(=O)(=O)N(C)CC(=O)Nc2cccc(C(C)=O)c2)cc1	0.3	0%	4	1	-1

Entries listed so far that contain fluorine:
SMILES	RecA splice inh	Mtb H37Rv	Arbovirus anti	YopH PTP inh	Mtb betalactam	others
CC1=C(C#N)C(Nc2ccc(C)cn2)(C(F)(F)F)C(=O)N1 (stereo not given)	1.9	-3%	4	0	-10
COc1ccc(NC(=O)c2cc(F)c(F)cc2Cl)cc1Cl	-0.5	-6%	.	.	1

The list continues.
SMILES	RecA splice inh	Mtb H37Rv	Arbovirus anti	YopH PTP inh	Mtb betalactam	others
O=C(O)CCNS(=O)(=O)c1ccc2ccccc2c1	-1.2	1%	1	6	-11
Cc1ccc(S(=O)(=O)N2CCCCC2)cc1	-1.7	.	.	.	-5
O=C(NCCc1ccc(Cl)cc1)c1ccc(NC2=NC3CS(=O)(=O)CC3S2)cc1 (stereo not given)	-1.9	.	.	.	6
NS(=O)(=O)c1ccc(NC(=O)COC(=O)CCc2c[nH]c3ccccc23)cc1	-2.2	6%	11	.	16
NC(=S)N/N=C/c1ncc(C(F)(F)F)cc1Cl	-1.2	?	.	.	98
Cc1cc(/C=C2\C(=N)N3N=C(C(C)C)SC3=NC2=O)c(C)n1Cc1ccccc1	-11	-3%	.	.	-1
O=C(CNC(=O)c1cccs1)OCc1c(F)cccc1Cl	5.8	.	.	.	-6
O=C(CSc1nncs1)NC1CCCc2ccccc21 (stereo not given)	-3.8	-2%	9	.	3
Cc1cc2cc(C)c(NCCNC(=O)c3cccs3)nc2cc1C	1.9	9%	14	.	50
COc1ccc(-c2oc3ccc(N4CCOCC4)cc3c2/C=C/c2ccc(OC)c(OC)c2)cc1	-5.2	.	.	.	26
CCOC(=O)C1(Cc2ccc(Cl)cc2)CCN(Cc2ccon2)CC1	-2.1	4%	-3	.	-2
CCC1(C)CC(=O)N(c2ccc(C(=O)O)c(O)c2)C1=O (stereo not given)	1.6	-9%	5	-37	-3
Cc1cc(-c2c(C(=O)N3CCOCC3)c(C)nn2-c2cccc(C(F)(F)F)c2)no1	2.9	-7%	.	.	-6
COc1cc(NC(=O)CN2CCN(c3ccccc3)CC2)c(C)cc1[N+](=O)[O-]	0.7	5%	9	-13	-3
COc1ccc(NC(=O)C2CC(=O)N=C(N)S2)cc1 (stereo not given)	0.4	-7%	1	.	-9
COc1ccc(-n2c(=S)[nH]c3cc(C(=O)Nc4cc(OC)c(OC)c(OC)c4)ccc3c2=O)c(OC)c1	3.2	80%	0	.	31
COc1ccc(/C=N/NC(=O)c2cccc(Br)c2)cc1COc1ccccn1	.	-5%	.	.	-3
CCc1ccc(OCC(=O)O/N=C(\N)c2ccncc2)cc1	1.7	.	.	.	-9
Cc1ccc(C(=O)Nc2nc(-c3ccc(F)cc3)cs2)o1	7.1	.	.	.	12
COc1ccc(CC(=O)Nc2nnc(SCc3ccccc3)s2)cc1S(=O)(=O)N1CCOCC1	-0.8	-5%	-18	-30	-2
CCCCN=C1NN=C(c2ccc3c(c2)OCCO3)CS1	3.8	4%	12	.	10
COc1ccc(-n2ncc3c(=O)n(CC(=O)OCc4ccccc4)cnc32)cc1	-1.1	-1%	9	-15	?
Cc1cc(C)n2nc(SCC(=O)Nc3c(C)nn(-c4ccccc4)c3C)nc2n1	-0.9	1%	5	-16	7
COc1cc([N+](=O)[O-])cc(/C=N/NC(=O)C(C)Nc2cccc3ccccc23)c1O (stereo not given)	7.3	8%	-6	12	51
Cc1ccc2nc(NC(=O)C3CCCN(S(=O)(=O)c4cccnc4)C3)sc2c1 (stereo not given)	-1.3	31%	-15	-12	-2

Retrieved one by one from above, two records:
SMILES	RecA splice inh	Mtb H37Rv	Arbovirus anti	YopH PTP inh	Mtb betalactam	others
Cc1cc(C)n2nc(SCC(=O)Nc3c(C)nn(-c4ccccc4)c3C)nc2n1	-0.9	1%	5	-16	7
OC(c1ccccc1)c1nc2ccccc2s1 (stereo not given)	0.9	-2%	14	-56	5

Carrying on:
SMILES	RecA splice inh	Mtb H37Rv	Arbovirus anti	YopH PTP inh	Mtb betalactam	others
c1ccc2c(c1)[nH]c1nc3nncn3nc12	-1.4	-1%	1	-19	5	Arbovirus anti repeat=3
O=C(NCCO)C(=O)NCC1CCCN1S(=O)(=O)c1cccs1 (stereo not given)	-1.1	.	.	.	1
NC(=NCCc1ccccc1)c1cccc([N+](=O)[O-])c1	-3.4	.	.	.	-5
COc1ccc(N(C(=O)c2ccccc2)S(=O)(=O)c2cccs2)cc1	14	14%	-4	.	-3
Cc1cc(C(=O)CSc2nnc(Nc3ccccc3)s2)c(C)n1CC1CCCO1 (stereo not given)	-0.1	2%	14	-46	1
Cc1cccc(C(=O)Nc2c(C(=O)N3CCN(C)CC3)cnn2-c2ccccc2)c1	0.3	.	.	.	-7
O=c1[nH]c(=S)n(-c2ccccc2)c(O)c1C=NCCN1CCNCC1	-1.7	.	.	.	4
CCc1cc(C(=O)N2CCCC(CO)(Cc3ccc(F)cc3)C2)n(C)n1 (stereo not given)	2.4	.	.	.	7
Cc1ccc(CSCC(=O)N2CCOCC2)cc1	-0.1	3%	11	-8	-8
CC(C)OC(=O)CSc1nc(-c2ccc(F)cc2)cc(C(F)(F)F)n1	5.1	6%	-5	-21	50
COc1cc(OC)c(NC(=O)c2ccccc2F)cc1Cl	0.9	6%	-8	.	6
Cc1cccc(-n2ncc3c(N4CCOCC4)ncnc32)c1	0.6	6%	0	-5	0	Arbovirus anti repeat=-1
Oc1ccccc1C1=NCCNC(C(F)(F)F)=C1	-2.8	4%	2	.	1
O=C(NC1CCC(O)CC1)c1ccc(-c2ccc(Cl)cc2)o1 (stereo not given)	1.7	.	.	.	-9
NC(=O)CSc1nnc2sc3ccccc3n12	-1.1	-13%	0	-34	-18
N#C/C(=C(\O)C(F)(F)F)c1nnc2n1CCCCC2	1.7	-5%	0	.	-5
COc1cc(NS(=O)(=O)c2ccc(NC(=O)/C=C/c3cccc([N+](=O)[O-])c3)cc2)ncn1	-0.8	2%	-7	.	-3
COCCn1c(=S)[nH]c2cc(C(=O)N3CCN(c4ccc(F)cc4)CC3)ccc2c1=O	-2.5	1%	-3	-52	1
C/C(=N\NC(=S)NC(C)C)c1ccc(Cl)s1	-1.7	80%	12	-14	98
COc1cccc(OCC(=O)Nc2ccc(OC)c(OC)c2)c1	-2.3	1%	10	-14	-10
CN(Cc1ccccc1)C(=O)CSc1cc(=O)n(C)c2ccccc12	3.0	-7%	-11	.	-6
CC(=O)Nc1c2c(nn1-c1ccccc1C)CS(=O)(=O)C2	-4.1	.	.	.	-6
O=C(/C=C/c1ccccc1)OCCCN=C1NS(=O)(=O)c2ccccc21	-3.9	-1%	-13	.	-4
Cc1ccc(N(O)C(=O)NCCCCNC(=O)N(O)c2ccc(C)cc2)cc1	-6.0	.	.	.	?
CCC1C(=O)N=C(SCC(=O)Nc2ccc(C(=O)OC)cc2)NC1=O (stereo not given)	-2.0	9%	11	-45	88

(list continues)
SMILES	RecA splice inh	Mtb H37Rv	Arbovirus anti	YopH PTP inh	Mtb betalactam	others
Cc1csc(NC(=O)CSc2nnc(-c3cccnc3)o2)n1	-1.3	.	.	.	0
Cc1ccc(Sc2c(C#N)c(-c3ccccc3)nn2C)cc1	7.5	9%	11	-37	4
OCCN(CCCn1c(C(F)(F)F)nc2ccccc21)c1nc(CN2CCCCC2)cs1	-1.9	.	.	.	-2
Oc1ccc(Cl)cc1-c1cc(-c2ccccc2Cl)[nH]n1	1.8	21%	13	-1	-6
c1ccc(Oc2ccc(-c3ccnc4nc(N5CCOCC5)nn34)cc2)cc1	-0.2	?	2	.	97
CCOC(=O)c1cn2nc(Oc3ccc(OC)cc3)ccc2n1	2.4	4%	.	.	1
CN1C(=O)c2ccc(C(=O)NCc3ccccc3)cc2C1=O	1.3	-8%	3	0	1
COC(=O)c1sc(NC(=O)/C=C/c2ccc(C)o2)nc1C	-5.2	43%	3	-16	-1
Cn1cc(C(F)(F)F)nc1-c1ccc(OCC(O)CNCCOc2ccc(O)c(C(N)=O)c2)cc1 (stereo not given)	-104	-7%	.	.	-6
CCOC(=O)CSc1nnc(-c2ccccc2)c(-c2ccccc2)n1	13	.	.	.	99
Cc1ccc(OCC(O)CN2CCOCC2)cc1C (stereo not given)	1.4	.	.	.	3
COC(=O)CNC(=O)C(CCSC)NC(C)=O (stereo not given)	-2.2	-11%	2	.	-3
CN(C)CCCn1c(SCC(=O)Nc2sc3c(c2C#N)CCCC3)nnc1-c1ccncc1	-0.3	3%	10	-16	-3
Cc1cccc(NC(=O)NC2CCCCCCC2)c1	3.0	.	.	.	100
O=C1C2C3C=CC(CC3)C2C(=O)N1/N=C/c1ccc(O)c(O)c1 (stereo not given)	-3.4	0%	-29	-65	2
COc1ccc(OCCOc2cccc(C=C3C(=O)NC(=O)NC3=O)c2)cc1	0.9	.	.	.	25
COc1ccc(-c2nc(NC(=O)c3n[nH]c(=O)c4ccccc34)sc2C)cc1	-1.3	4%	44*	-26	4
Cc1ccc(NC(=O)N2CCc3ccccc3C2)cc1	-0.6	0%	-8	11	-2
O=C(NNC(=S)NCc1ccccc1)c1ccccc1OC(F)F	2.1	2%	8	-17	-6
CCOc1ccc(/C=N/NC(=O)c2cc3c(OC)cccc3[nH]2)cc1	0.4	.	.	.	-1
CC12CC3(C)CC(C)(C1)CC(C(=O)NC(=S)N1CCOCC1)(C2)C3	0.2	17%	-4	-17	1
N#Cc1ccc(OCC(=O)OCCCOC(=O)COc2ccc(C#N)cc2)cc1	0.8	.	.	.	7
Cc1cc(-c2ccc(C)c(S(=O)(=O)NCc3cccc(Br)c3)c2)on1	9.4	.	.	.	2

Compound activity from PubChem BioAssay.
